Bioassay records as filed in PubChem BioAssay.
WNV protease inh – WNV NS2B-NS3 proteinase inhibition; P06935; WNV NS2B-NS3 protease, fluorogenic substrate Ex360/Em465; hits give low values; z-score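 (tested at a level between 10 and 100 µM)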; actives 0.18% (n = 65,000);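 active means z-score at -3 or under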;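 further: score is relative to mean and spread of the compound wells of a plate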
Target sequence (P06935 1371-1501 limits assumed): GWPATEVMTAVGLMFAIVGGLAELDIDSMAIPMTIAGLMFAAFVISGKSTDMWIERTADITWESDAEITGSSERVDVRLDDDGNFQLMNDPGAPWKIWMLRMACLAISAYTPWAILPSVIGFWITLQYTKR
Target sequence (P06935 1502-1679 limits assumed): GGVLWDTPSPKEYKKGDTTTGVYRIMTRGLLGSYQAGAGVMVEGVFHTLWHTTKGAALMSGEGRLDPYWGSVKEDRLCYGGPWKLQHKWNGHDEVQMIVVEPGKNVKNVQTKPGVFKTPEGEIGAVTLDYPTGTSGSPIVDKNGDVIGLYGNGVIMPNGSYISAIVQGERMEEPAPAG
Hsc70 – Hsc70 inhibitors, probe displacement, primary screen, biochemical, fluorescence polarization (AID 568); Hsc70 fluorescence polarization, probe displacement; higher % means a stronger effect; strong numbers were not always called active; displacement, % at 20 µM; hits with a dose series show IC50 in µM; 83,000 tested, under 10 active;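 active means displacement above 50% without optical interference and an IC50 on retest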;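 further: ATPase domain with a fluorescein-tagged ATP probe; 0% = vehicle and 100% = excess ADP; read after one hour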
MT1-MMP reporter – inhibitors of MT1-MMP promoter transcription, cell-based, luciferase reporter, luminescence (AID 618) | calls from a first round at 10 µM; hits with a dose series show EC50 in µM | MT1-MMP promoter luciferase reporter cells, luminescence | actives 0.62% (n = 87,000);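 active means over half of the reporter light lost at 10 µM or EC50 under 50 µM; inactive means the rest and hits that failed the dose series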;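 further: actives suppress MT1-MMP promoter-driven transcription so potencies describe inhibitors; HT1080 fibrosarcoma cells; overnight exposure; toxic or luciferase-blocking compounds were not removed from the actives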
Starred values were filed as active, the others as inactive; i = inactive; x = not tested or not shown. Not all compounds are listed (hit frequency here may not be typical).

Below each compound: WNV protease inh	Hsc70	MT1-MMP reporter
O=c1cc(N2CCOCC2)[nH]c(=O)n1C1CCCCC1
→ -0.0031	-6.3%	i
O=C(NCCc1c[nH]c2ccccc12)C(F)(F)C(F)F
→ -0.76	4.7%	i
COc1ccc(OCC(=O)NCCCN2CCOCC2)cc1
→ x	-1.1%	i
Cc1ccc(C(=O)CSc2nc3cccnc3n2C)cc1
→ -0.64	3.2%	i
CCOC(=O)c1sc(C)c2c1NC(c1ccc(N(C)C)cc1)NC2=O (stereo unspecified)
→ x	-0.3%	i
CCOc1ccccc1NC1c2ccccc2C(=O)N1Cc1ccco1 (stereo unspecified)
→ -0.56	-1.9%	i
CCCCn1ccnc1C(=O)c1cccc(S(=O)(=O)N2c3ccccc3CC2C)c1 (stereo unspecified)
→ -0.83	-15%	i
Cc1sc2ncnc(OCC(=O)NCC3CCCO3)c2c1C (stereo unspecified)
→ 0.47	2.9%	i
CCOC(=O)N1CCN(c2c(NC3CCN(Cc4ccccc4)CC3)c(=O)c2=O)CC1
→ 0.57	2.6%	i
COC(=O)c1c(O)ccc(Oc2ccccc2)c1C(=O)OC
→ 0.58	-6.8%	i
Cc1noc(/C=C/N(C)C)c1S(=O)(=O)N1CCCC(C(=O)NC2CCCCC2C)C1 (stereo unspecified)
→ -0.72	1.3%	i
CCOC(=O)c1[nH]c2ccc(OCC)cc2c1NC(=O)CN1CCN(c2ccccc2)CC1
→ 0.8	-5.6%	i
C1CCC(n2nnnc2CN2CCCC2)CC1
→ 0.15	-1.9%	i
COc1ccc(OC)c(-n2c(N)c(C(=O)NCC3CCCO3)c3nc4ccccc4nc32)c1 (stereo unspecified)
→ 0.23	2.2%	i
Cc1ccc(Cn2c(=O)n(CCC(=O)NCc3ccc4c(c3)OCO4)c(=O)c3ccccc32)cc1
→ x	-1.2%	i

Not a retest: two of the compounds above.
Below each compound: WNV protease inh	Hsc70	MT1-MMP reporter
COc1ccc(OCC(=O)NCCCN2CCOCC2)cc1
→ x	-1.1%	i
Cc1ccc(C(=O)CSc2nc3cccnc3n2C)cc1
→ -0.64	3.2%	i

(cont.)
Below each compound: WNV protease inh	Hsc70	MT1-MMP reporter
O=C(Cn1cnc2ccccc2c1=O)c1c[nH]c2ccccc12
→ -1.6	5.8%	i
CCN(CC)S(=O)(=O)c1ccc(N(C)Cc2cccnc2)nc1
→ x	-1.8%	i
COC(=O)CSC1=C(C#N)C(c2cccc(F)c2)CC(=O)N1 (stereo unspecified)
→ -0.82	1.0%	i
Cc1oc(/N=C/c2ccc(Cl)cc2Cl)c(C#N)c1C
→ -0.5	-3.7%	i
COc1cccc(NC(=O)CN2CCC(C)CC2)c1
→ x	-4.5%	i
CCCOC(=O)C1[C@H]2C(=O)N(Cc3ccco3)C[C@]23C=C[C@H]1O3 (stereo partly specified)
→ -0.22	-10%	i
Cc1c(C)n(C(=O)CN2CCC(C)CC2)c2ccccc12
→ x	-0.3%	i
COc1cccc(NC2=CC(=O)CC(C)(C)C2)c1
→ -0.56	1.5%	i
Fc1ccc(CSc2nc3ccccc3[nH]2)c2ccccc12
→ x	-4.3%	i
Cc1cc(CCN2CCC(=O)NC2=O)ccc1OC(C)C
→ 0.52	-1.4%	i
Cc1cccc(-c2nnc(SCC#N)n2Cc2ccccc2)c1
→ -1.4	-5.5%	i
CN(C)c1ccc(C(=O)Nc2nnc(-c3ccc(Cl)cc3)o2)cc1
→ 1.7	5.9%	i
COc1ccccc1C(=O)Nc1cccc(-c2cn3ccsc3n2)c1
→ -1.6	6.2%	i
COc1ccccc1C(=O)Nc1ccc2oc(-c3ccc(F)cc3)nc2c1
→ 1.4	0.2%	i
COc1ccccc1OCc1nnc(SCCN2CCOCC2)o1
→ -0.0034	-0.6%	i
O=C(CSc1nnc(COc2ccccc2Cl)o1)NC(=O)NC1CCCC1
→ -1.4	-1.2%	i
CN(Cc1ccccc1)C(=O)CSc1nnc(-c2ccco2)n1-c1ccccc1
→ -0.38	2.4%	i
COC(=O)c1sc(NC(=O)COc2ccc(OC)cc2)nc1C
→ x	1.1%	i
N#Cc1cc2sc3nc4ccccc4n3c2cc1C#N
→ 0.53	0.8%	i
Nc1nonc1NC(=O)CSc1ncccc1C(=O)O
→ 1.3	-0.7%	i
Cn1c(=O)c2c(nc(CN3CCCCC3)n2CCCc2ccccc2)n(C)c1=O
→ 0.36	-0.2%	i
CC(C)Oc1cccc(C(=O)Nc2ccc(N3CCN(S(C)(=O)=O)CC3)cc2)c1
→ 0.85	-8.8%	i
O=C(OC(C(=O)NCc1cccs1)c1ccc(F)cc1)c1ccco1 (stereo unspecified)
→ -0.09	-4.1%	i
Cc1nnc(SCC(=O)Nc2ccc3c(c2)OCCO3)s1
→ 0.16	-1.3%	i
Cc1ccc2cc(CCNC(=O)c3ccco3)c(=O)[nH]c2c1
→ 0.69	3.7%	i
Cc1cc(N2CCOCC2)nc2ccc(NC(=O)C3CCC(C)CC3)cc12 (stereo unspecified)
→ -1.1	1.7%	i
O=S(=O)(Nc1cccc(-c2cn3ccsc3n2)c1)c1ccc(F)cc1
→ 0.19	0.6%	i
O=C(NCC12CC3CC(CC(C3)C1)C2)c1nc2ncccn2n1
→ -0.3	1.2%	i
COc1ccc(N=Cc2c(O)n(-c3cccc(C)n3)c(=O)c3ccccc23)cc1
→ x	1.7%	i
O=C(NCc1ccccc1)C1CCCN(S(=O)(=O)c2cccs2)C1 (stereo unspecified)
→ x	-3.1%	i

Record cards, from the list above.
Record of `Cc1nnc(SCC(=O)Nc2ccc3c(c2)OCCO3)s1` → WNV protease inh: 0.16; Hsc70: -1.3%; MT1-MMP reporter: i
Record of `Cc1cc(N2CCOCC2)nc2ccc(NC(=O)C3CCC(C)CC3)cc12` (stereo unspecified) → WNV protease inh: -1.1; Hsc70: 1.7%; MT1-MMP reporter: i

Carrying on.
Below each compound: WNV protease inh	Hsc70	MT1-MMP reporter
COCCn1nnnc1C(c1cccs1)N1CCN(c2cc(C)ccc2C)CC1 (stereo unspecified)
→ -0.11	-4.0%	i
CCOC(=O)N1CCN(C(=O)CS(=O)Cc2nc(-c3ccc(C)cc3)oc2C)CC1 (stereo unspecified)
→ 2.4	1.0%	i
O=S(=O)(c1ccc(Oc2ccc(-c3nnco3)cc2)nc1)N1CCC(Cc2ccccc2)CC1
→ 0.04	3.2%	i
COC(=O)c1sccc1NC(=O)c1c(C)noc1C
→ 2.3	0.1%	i
CN(C)CCCN1C(=O)c2oc3ccc(Cl)cc3c(=O)c2C1c1cccnc1 (stereo unspecified)
→ 0.21	-3.2%	i
CC(=O)c1ccc(NC(=O)Nc2cccc(Cl)c2)cc1
→ x	1.3%	i
O=c1cc(Nc2ccc3c(c2)OCCO3)[nH]c(=O)n1-c1ccc(Br)cc1
→ -0.94	-3.8%	i
Cc1nnc(SCC(=O)N2c3ccccc3CC2C)s1 (stereo unspecified)
→ -0.11	0.2%	i
O=C(/C=C/c1ccco1)NC(=S)Nc1ccccn1
→ x	-1.3%	i
CC1=C(C(=O)OCc2ccccc2)C(c2ccc(N(C)C)cc2)NC(=O)N1 (stereo unspecified)
→ x	0.1%	i
CN(C)/C=N/c1c(C#N)cnn1-c1ccc(C(F)(F)F)cn1
→ -0.32	6.2%	i
CC(C)NC(=O)NC1C2CC3CC(C2)CC1C3 (stereo unspecified)
→ 1.6	0.8%	i
CCOC(=O)c1cc2c(c(CSc3nc4ccccc4c(=O)n3Cc3ccco3)c1)OCOC2
→ 0.46	-3.4%	i
CCc1ccc(S(=O)(=O)NCCc2csc(-c3ccccc3)n2)s1
→ 0.02	-2.0%	i
O=C(c1ccc2c(c1)OCO2)N1CCCN(C(=O)c2ccc3c(c2)OCO3)CC1
→ -0.67	2.2%	i
CCOC(=O)C1=C(CC)NC2=C(C(=O)CCC2)C1c1ccc(OC)c(OC)c1 (stereo unspecified)
→ x	-2.2%	i
Cn1nc(C(=O)N2CCc3ccccc3C2)c2ccccc2c1=O
→ x	3.7%	i
O=C(O)C1NCCc2ccccc21 (stereo unspecified)
→ 0.45	3.0%	i
O=C(NCc1cccs1)C1CCCN1S(=O)(=O)c1ccccc1F (stereo unspecified)
→ -0.71	1.9%	i
CN(C(=O)C1CCOC1)c1nnc(-c2ccccn2)s1 (stereo unspecified)
→ -0.5	-0.5%	i
CCOC(=O)c1c(CN2CCCCC2)n(C)c2ccc(OC)c(S(=O)(=O)c3ccccc3)c12
→ -0.7	6.1%	i
C=Cn1c(N2CCOCC2)nc2c1c(=O)[nH]c(=O)n2C
→ -0.54	1.2%	i
CCOc1ccc(Cl)cc1S(=O)(=O)N1CCN(c2ccc(C)c(C)c2)CC1
→ x	3.4%	i
CCCN1CCN(c2nc3c([nH]2)c(=N)ncn3CC(O)CO)CC1 (stereo unspecified)
→ 1.7	-6.6%	i
CCCCCC(=O)Nc1ccc2oc(-c3cncc(Br)c3)nc2c1
→ 0.26	-3.3%	i
C=CCn1c(COc2ccccc2)nnc1SCC(=O)C(C)(C)C
→ -0.89	1.4%	i
Clc1ccc(-c2nnc3sc(Cc4cccs4)nn23)cc1
→ 0.9	-0.3%	i
O=C(Nc1cnn(C23CC4CC(CC(C4)C2)C3)c1)c1cc(-c2ccccc2)on1
→ 0.96	-9.7%	i
COCCNC(=O)C(c1ccc(F)cc1)N(CC1CCCO1)C(=O)CCC(=O)Nc1ccccn1 (stereo unspecified)
→ 1	2.0%	i
O=S(=O)(c1ccc(Cl)cc1)N1CCC(O)(c2cccnc2)CC1
→ x	3.8%	i
COc1ccc(C2CC(=O)c3sc(N)nc3C2)cc1 (stereo unspecified)
→ -0.11	0.2%	i
O=S(=O)(NCc1ccc(F)cc1)c1ccc2c(c1)OCCO2
→ -0.2	5.8%	i
CCn1c(SCC(=O)N2CCN(c3ccccc3)CC2)nc2c(c1=O)SC(C)C2 (stereo unspecified)
→ 1.3	-3.2%	i
CCn1c(=O)c2cc(S(=O)(=O)NCc3ccccc3)ccc2n(CC)c1=O
→ 1.6	-0.3%	i
COc1ccc2[nH]cc(CCNC(=O)C3CCCNC3=O)c2c1 (stereo unspecified)
→ -0.15	4.7%	i
CCOC(=O)c1cccc(NC(=O)CCNS(=O)(=O)c2ccc3c(c2)CCN3C(=O)CC)c1
→ -0.57	-1.9%	i
O=C(CSc1nnc(C2CC2)n1-c1ccccc1)NCc1ccco1
→ x	-2.7%	i
CS(=O)(=O)N1CCC(C(=O)c2cccc(Cl)c2)CC1
→ -0.22	2.2%	i
COc1cc2c(cc1OC)C1=C(C#N)CCC(=O)N1CC2
→ -0.7	-4.6%	i
CCCn1nnnc1SCC(=O)N(C(C)C)C(C)C
→ 0.32	0.2%	i
O=C1c2ccccc2C(=O)N1Cc1nc2ccccc2c(=O)n1CCCn1ccnc1
→ 2.5	4.9%	i
COc1ccc(/C=N/n2cncn2)cc1COc1ccc(NC(C)=O)cc1
→ 0.97	1.6%	i
CC(=O)NC(Cc1ccc(C(C)C)cc1)C(=O)NC1CCN(c2nc(C)cc(C)n2)CC1 (stereo unspecified)
→ -0.01	-4.7%	i
CSC1=Nc2sc3c(c2C2=NCCN12)CCCC3
→ -0.31	-6.6%	i
Cn1c(CN2CCOCC2)nc2cc(NC(=O)c3ccccc3Cl)ccc21
→ -1.1	4.0%	i

3 entries out of the list, arranged by length of the SMILES, lowest first.
Below each compound: WNV protease inh	Hsc70	MT1-MMP reporter
CCn1c(=O)c2cc(S(=O)(=O)NCc3ccccc3)ccc2n(CC)c1=O
→ 1.6	-0.3%	i
O=C1c2ccccc2C(=O)N1Cc1nc2ccccc2c(=O)n1CCCn1ccnc1
→ 2.5	4.9%	i
CC(=O)NC(Cc1ccc(C(C)C)cc1)C(=O)NC1CCN(c2nc(C)cc(C)n2)CC1 (stereo unspecified)
→ -0.01	-4.7%	i

Next section.
Below each compound: WNV protease inh	Hsc70	MT1-MMP reporter
COc1ccc(C/C(O)=C(\C#N)c2nc3ccccc3[nH]2)cc1OC
→ -0.23	-1.3%	i
Cc1ccc(C(C(=O)NC2CCCC2)N(C(=O)CNC(=O)c2cccs2)c2cccnc2)o1 (stereo unspecified)
→ x	2.5%	i
CCOC(=O)c1c(C)sc2c1N(C(=O)CN(CC)CC)c1ccccc1S2
→ x	4.4%	i
Cc1cc(C(=O)CSc2nc3ccccc3o2)c(C)n1C1CC1
→ -0.04	4.0%	i
CCCOc1ccc(CSc2ncn[nH]2)cc1
→ 0.15	5.7%	i
CCOc1cc2[nH]c(=S)n(Cc3ccc(C)o3)c(=O)c2cc1OCC
→ -1.4	-1.2%	i
CNC(=O)NC(=O)CSc1ncc(C(F)(F)F)cc1Cl
→ -0.91	8.8%	i
CCn1nnnc1SCC(=O)NCc1ccco1
→ 2.6	1.6%	i
CCCCC(c1nnnn1CC1CCCO1)N1CCN(c2cc(Cl)ccc2C)CC1 (stereo unspecified)
→ -1	-4.2%	i
O=C(NCCN1CCOCC1)C1CC(=O)N(c2ccc(F)c(Cl)c2)C1 (stereo unspecified)
→ 1.4	-3.1%	i
CCOC(=O)c1oc2cccc(O)c2c1C
→ x	19%	i
COc1ccc(-n2c(SCC(=O)N3CCN(c4ccccc4)CC3)nc3c(c2=O)SCC3)cc1
→ -0.88	-0.8%	i
COc1ccc(S(=O)(=O)CCC(=O)NCCc2ccc(Cl)cc2)cc1
→ x	-0.8%	i
N=c1nc(-c2ccccc2)ccn1O
→ 0.59	5.7%	i
O=C(Nc1ncc(Cc2cccc(Cl)c2)s1)c1cccs1
→ x	4.6%	i
O=C(NCc1ccc2c(c1)OCO2)C1CC(c2ccc(Cl)c(Cl)c2)=NO1 (stereo unspecified)
→ x	-1.1%	i
